A1 apoptosis 2: blocks A1, raising caspase activity; caspase activation, % (no concentration beside the values); MEF A1-2A-BIM cells, caspase-Glo luminescence, 3 h; percent of clofoctol response, DMSO zero; 24,000 tested, under 10 active; in the data active = caspase activation above about 5.9%;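 also: wells of about 30 µL received 50 nL stock; the first replicate is given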
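Test system – A1-2A-BIM-expressing MEF cells · Input – 2500 cells/well · Medium – RPMI-1640 growth medium with 10% FBS · Compound dosing – 50 nL pinned compound · Timing – 3 h compound exposure at 37 °C · Technique – Caspase-Glo luminescence (DEVD substrate) · Evaluation – Caspase-3/7 activity from luminescence increase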
Starred values were filed as active, the others as inactive.

compound	A1 apoptosis 2
COc1ccc(S(=O)(=O)Nc2ccc3c(c2)C(=O)N([C@H](C)CO)C[C@@H](C)[C@H](CN(C)S(=O)(=O)c2cccs2)OCCCC[C@@H](C)O3)cc1	-0.4
C[C@H]1CN([C@@H](C)CO)C(=O)Cc2cc(NS(=O)(=O)c3ccc(F)cc3)ccc2O[C@H]1CN(C)C(=O)Nc1ccccc1	-0.6
C[C@@H]1CN([C@@H](C)CO)C(=O)c2cc(NC(=O)CCCN(C)C)ccc2O[C@H]1CN(C)C(=O)Nc1cccc2ccccc12	-0.4
C[C@@H]1CN([C@H](C)CO)C(=O)CCCn2nncc2CO[C@@H]1CN(C)CC1CCCCC1	1.7
C[C@H]1CN([C@@H](C)CO)C(=O)Cc2cc(NS(=O)(=O)c3ccccc3)ccc2O[C@H]1CN(C)Cc1ccncc1	-0.8
CCCN(C)C[C@H]1OCCCC[C@H](C)Oc2ccc(NS(=O)(=O)c3ccc(OC)cc3)cc2C(=O)N([C@H](C)CO)C[C@H]1C	-0.7
C[C@@H]1CN([C@H](C)CO)C(=O)c2cccc(NC(=O)C3CCCCC3)c2O[C@@H]1CN(C)Cc1ccc(C(=O)O)cc1	1.0
C[C@@H]1CN([C@H](C)CO)C(=O)Cc2cc(NS(=O)(=O)c3ccccc3)ccc2O[C@@H]1CN(C)Cc1ccc(Oc2ccccc2)cc1	-1.5
C=CCNC(=O)[C@H]1[C@@H]2C(=O)O[C@@H](c3ccccc3)[C@@H](c3ccccc3)N2[C@@H](c2ccc(OCCO)cc2)[C@]12C(=O)Nc1ccc(C#CC3(O)CCCCCC3)cc12	0.2
C[C@H](CO)N1C[C@H](C)[C@@H](CN(C)S(=O)(=O)c2ccccc2)Oc2ccc(NC(=O)Cn3cnnn3)cc2CC1=O	0.1
C[C@H]1CN([C@@H](C)CO)C(=O)Cc2cc(NC(=O)Cc3ccccc3)ccc2O[C@H]1CN(C)C(=O)Nc1ccc2c(c1)OCO2	1.6
C[C@@H]1CCCCO[C@@H](CN(C)C)[C@@H](C)CN([C@H](C)CO)C(=O)c2cc(NS(C)(=O)=O)ccc2O1	0.6
C[C@H]1CN([C@@H](C)CO)C(=O)Cc2cc(NS(C)(=O)=O)ccc2O[C@@H]1CN(C)Cc1ccc(Cl)c(Cl)c1	0.6
C[C@@H]1CN([C@H](C)CO)C(=O)c2cc(NC(=O)c3ccccc3)ccc2O[C@@H](C)CCCCO[C@@H]1CN(C)C(=O)C1CCCCC1	1.9
NC(=O)[C@H]1[C@@H]2C(=O)O[C@@H](c3ccccc3)[C@@H](c3ccccc3)N2[C@@H](c2ccc(OCCO)cc2)[C@]12C(=O)Nc1ccc(C#CC3=CCCCC3)cc12	-0.7
Cc1noc(C)c1S(=O)(=O)N(C)C[C@H]1OCCCC[C@@H](C)Oc2ccc(NS(=O)(=O)c3ccc(F)cc3)cc2C(=O)N([C@H](C)CO)C[C@@H]1C	1.0
Cc1noc(C)c1NC(=O)Nc1ccc2c(c1)C(=O)N([C@H](C)CO)C[C@@H](C)[C@H](CN(C)C)O2	-0.8
Cc1noc(C)c1S(=O)(=O)Nc1ccc2c(c1)C(=O)N([C@@H](C)CO)C[C@@H](C)[C@H](CN(C)C(=O)Nc1ccc(F)cc1)OCCCC[C@@H](C)O2	0.0
C[C@H]1CN([C@@H](C)CO)C(=O)c2cccc(NC(=O)NC3CCCCC3)c2O[C@H]1CN(C)Cc1ccccc1	0.3
C[C@H]1CN([C@@H](C)CO)C(=O)Cc2cc(NC(=O)Nc3ccc(F)cc3)ccc2O[C@@H]1CN(C)Cc1ccc(C(F)(F)F)cc1	1.2
COc1ccc(NC(=O)Nc2ccc3c(c2)C(=O)N([C@@H](C)CO)C[C@H](C)[C@@H](CN(C)S(=O)(=O)c2ccc(C)cc2)OCCCC[C@@H](C)O3)cc1	-0.6
Cc1noc(C)c1S(=O)(=O)Nc1ccc2c(c1)C(=O)N([C@@H](C)CO)C[C@@H](C)[C@@H](CN(C)Cc1ccc3c(c1)OCO3)OCCCC[C@@H](C)O2	-0.3
Cc1noc(C)c1S(=O)(=O)N(C)C[C@@H]1OCCCC[C@H](C)Oc2ccc(NC(=O)NC3CCCCC3)cc2C(=O)N([C@H](C)CO)C[C@@H]1C	0.9
C[C@@H]1CN([C@@H](C)CO)C(=O)c2cc(NC(=O)C3CCCCC3)ccc2O[C@@H]1CN(C)Cc1ccc(C(=O)Nc2ccccc2N)cc1	0.2
C[C@@H]1CN([C@H](C)CO)C(=O)c2cc(NC(=O)Nc3ccc(F)cc3)ccc2O[C@@H]1CN(C)CC1CCCCC1	0.6
C[C@@H]1CN([C@H](C)CO)C(=O)Cc2cc(NC(=O)C3CCCCC3)ccc2O[C@H]1CN(C)S(=O)(=O)c1cn(C)cn1	0.2
Cc1ccc(S(=O)(=O)Nc2ccc3c(c2)C(=O)N([C@H](C)CO)C[C@@H](C)[C@H](CN(C)S(C)(=O)=O)O3)cc1	-0.1
C[C@H]1CN([C@@H](C)CO)C(=O)Cc2cc(NS(=O)(=O)c3cccs3)ccc2O[C@@H]1CN(C)Cc1ccc(-c2ccccc2)cc1	-1.2
CO[C@H](CCO)[C@H](O)c1ccc(O)c(F)c1	-0.2
CNC[C@@H]1Oc2c(NC(=O)Nc3ccc(C(F)(F)F)cc3)cccc2C(=O)N([C@@H](C)CO)C[C@@H]1C	0.5
C[C@H]1CN([C@@H](C)CO)C(=O)Cc2cc(NC(=O)Nc3ccc(F)cc3)ccc2O[C@H]1CN(C)Cc1ccc(C(=O)Nc2ccccc2N)cc1	-1.0
C[C@@H]1CN([C@@H](C)CO)C(=O)c2cc(NC(=O)Nc3ccc(C(F)(F)F)cc3)ccc2O[C@@H](C)CCCCO[C@H]1CN(C)C(=O)Nc1ccccc1	0.9
CC(C)NC(=O)N(C)C[C@H]1OCCCC[C@H](C)Oc2ccc(NC(=O)CCCN(C)C)cc2C(=O)N([C@H](C)CO)C[C@@H]1C	-0.3
Cc1noc(C)c1NC(=O)Nc1cccc2c1O[C@H](CN(C)S(=O)(=O)c1ccccc1)[C@@H](C)CN([C@@H](C)CO)C2=O	0.7
COc1ccc(S(=O)(=O)N(C)C[C@@H]2Oc3c(NC(=O)Nc4ccc(F)cc4)cccc3C(=O)N([C@H](C)CO)C[C@H]2C)cc1	0.8
C[C@@H]1CN([C@@H](C)CO)C(=O)c2cc(NC(=O)Nc3ccc(F)cc3)ccc2O[C@H]1CN(C)C(=O)Nc1ccc(C(F)(F)F)cc1	0.7
C[C@@H]1CN([C@H](C)CO)C(=O)c2cc(NC(=O)c3ccccc3)ccc2O[C@@H](C)CCCCO[C@H]1CN(C)S(=O)(=O)c1cn(C)cn1	0.2
COc1ccc(NC(=O)Nc2ccc3c(c2)C(=O)N([C@@H](C)CO)C[C@@H](C)[C@@H](CN(C)S(=O)(=O)c2ccc(C)cc2)OCCCC[C@H](C)O3)cc1	-0.2
C[C@@H]1CCCCO[C@H](CN(C)S(=O)(=O)c2ccccc2)[C@H](C)CN([C@@H](C)CO)C(=O)c2cc(NC(=O)Nc3ccc4c(c3)OCO4)ccc2O1	-0.4
COc1ccc(CN(C)C[C@H]2OCCCC[C@H](C)Oc3ccc(NC(=O)c4ccncc4)cc3C(=O)N([C@H](C)CO)C[C@H]2C)cc1	0.5
O=C(CCCCCC(=O)N/N=C/c1ccco1)NO	1.0
COc1ccc(S(=O)(=O)Nc2ccc3c(c2)C(=O)N([C@H](C)CO)C[C@H](C)[C@@H](CN(C)CC2CCCCC2)OCCCC[C@@H](C)O3)cc1	-0.1
O=C(NO)c1cccc(C(=O)N/N=C/c2ccc3ccccc3n2)c1	-3.4
CC(C)NC(=O)Nc1ccc2c(c1)C(=O)N([C@H](C)CO)C[C@@H](C)[C@@H](CN(C)C(=O)Nc1ccccc1)OCCCC[C@@H](C)O2	-0.8
CNC[C@@H]1Oc2ccc(NC(=O)Nc3c(C)noc3C)cc2C(=O)N([C@@H](C)CO)C[C@@H]1C	0.4
O=C(C1=C[C@H](C2CC2)C[C@H](OCc2ccc(CO)cc2)O1)N1CCN(Cc2ccccc2)CC1	-0.3
COc1ccc(NC(=O)Nc2ccc3c(c2)C(=O)N([C@H](C)CO)C[C@@H](C)[C@@H](CN(C)S(=O)(=O)c2cccs2)O3)cc1	0.0
C[C@H]1CN([C@@H](C)CO)C(=O)Cc2cc(NS(=O)(=O)c3ccc(F)cc3)ccc2O[C@H]1CN(C)C(=O)NC1CCCCC1	1.1
Cc1noc(C)c1S(=O)(=O)Nc1ccc2c(c1)C(=O)N([C@@H](C)CO)C[C@H](C)[C@H](CN(C)C(=O)CCC(F)(F)F)OCCCC[C@H](C)O2	-0.1
C[C@H](CO)N1C[C@H](C)[C@@H](CN(C)Cc2ccncc2)Oc2ccc(NC(=O)Nc3ccc(F)cc3)cc2C1=O	-0.7
CNC[C@H]1Oc2ccc(NC(=O)Nc3ccc4c(c3)OCO4)cc2C(=O)N([C@H](C)CO)C[C@@H]1C	0.7
CCOc1cccc(/C=N/NC(=O)CCCCCC(=O)Nc2ccccc2O)c1OCC	-1.0
Cc1ccc(S(=O)(=O)Nc2ccc3c(c2)C(=O)N([C@@H](C)CO)C[C@H](C)[C@@H](CN(C)S(=O)(=O)c2ccc(C)cc2)O3)cc1	0.1
COc1ccc(CN(C)C[C@@H]2Oc3c(NS(=O)(=O)c4cccs4)cccc3C(=O)N([C@@H](C)CO)C[C@@H]2C)cc1	-0.4
COc1ccc(NC(=O)Nc2ccc3c(c2)CC(=O)N([C@H](C)CO)C[C@@H](C)[C@@H](CN(C)CC2CC2)O3)cc1	0.8
Cc1noc(C)c1S(=O)(=O)N(C)C[C@@H]1Oc2ccc(NS(=O)(=O)c3ccc(F)cc3)cc2CC(=O)N([C@@H](C)CO)C[C@@H]1C	-0.1
CNC[C@@H]1OCCCC[C@H](C)Oc2ccc(NC(=O)Nc3ccc4c(c3)OCO4)cc2C(=O)N([C@H](C)CO)C[C@H]1C	1.5
COc1ccc(S(=O)(=O)N(C)C[C@@H]2OCCCC[C@@H](C)Oc3ccc(NC(=O)NC4CCCCC4)cc3C(=O)N([C@@H](C)CO)C[C@H]2C)cc1	-0.9
Cc1noc(C)c1S(=O)(=O)N(C)C[C@H]1Oc2ccc(NS(=O)(=O)c3ccc(Cl)cc3)cc2CC(=O)N([C@@H](C)CO)C[C@@H]1C	-0.7
COc1ccc(NC(=O)Nc2ccc3c(c2)C(=O)N([C@@H](C)CO)C[C@@H](C)[C@@H](CN(C)Cc2ccc4c(c2)OCO4)OCCCC[C@@H](C)O3)cc1	-0.9

(more compounds)
compound	A1 apoptosis 2
C[C@H](CO)N1C[C@H](C)[C@@H](CN(C)Cc2ccc(C(F)(F)F)cc2)Oc2ccc(NC(=O)Nc3cccc4ccccc34)cc2CC1=O	0.4
C[C@H]1CN([C@@H](C)CO)C(=O)c2cccc(NS(=O)(=O)c3cn(C)cn3)c2O[C@H]1CN(C)Cc1ccccc1	-1.0
C[C@H](CO)N1C[C@H](C)[C@H](CN(C)S(=O)(=O)c2ccc(F)cc2)Oc2ccc(NC(=O)Cc3ccccc3)cc2CC1=O	-0.4
C[C@@H]1CCCCO[C@H](CN(C)C(=O)Nc2ccc(C(F)(F)F)cc2)[C@H](C)CN([C@@H](C)CO)C(=O)c2cc(NC(=O)Nc3ccccc3)ccc2O1	0.0
COc1ccc(NC(=O)Nc2ccc3c(c2)CC(=O)N([C@@H](C)CO)C[C@H](C)[C@@H](CN(C)Cc2ccncc2)O3)cc1	-0.5
C[C@H]1CN([C@@H](C)CO)C(=O)CCCn2cc(nn2)CO[C@@H]1CN(C)S(=O)(=O)c1ccc(Oc2ccccc2)cc1	1.6
CC(C)NC(=O)N(C)C[C@@H]1Oc2ccc(NS(=O)(=O)c3ccc(F)cc3)cc2C(=O)N([C@@H](C)CO)C[C@@H]1C	-0.5
CCCN(C)C[C@H]1OCCCC[C@@H](C)Oc2ccc(NS(=O)(=O)c3c(C)noc3C)cc2C(=O)N([C@@H](C)CO)C[C@H]1C	-0.7
C[C@@H]1CN([C@H](C)CO)C(=O)Cc2cc(NS(C)(=O)=O)ccc2O[C@H]1CN(C)Cc1ccc2c(c1)OCO2	1.0

In another format: results already given
C[C@@H]1CN([C@H](C)CO)C(=O)Cc2cc(NS(C)(=O)=O)ccc2O[C@H]1CN(C)Cc1ccc2c(c1)OCO2
  A1 apoptosis 2: 1.0

C[C@H]1CN([C@@H](C)CO)C(=O)CCCn2cc(nn2)CO[C@@H]1CN(C)S(=O)(=O)c1ccc(Oc2ccccc2)cc1
  A1 apoptosis 2: 1.6

C[C@H]1CN([C@@H](C)CO)C(=O)c2cccc(NS(=O)(=O)c3cn(C)cn3)c2O[C@H]1CN(C)Cc1ccccc1
  A1 apoptosis 2: -1.0

C[C@@H]1CCCCO[C@H](CN(C)C(=O)Nc2ccc(C(F)(F)F)cc2)[C@H](C)CN([C@@H](C)CO)C(=O)c2cc(NC(=O)Nc3ccccc3)ccc2O1
  A1 apoptosis 2: 0.0

Screens: PubChem, Broad Institute

An excerpt. The share of hits here may be higher or lower than overall.
